Yeast UUG start – modulators of start codon recognition fidelity in yeast | 350,000 tested, 0.13% active | activity score, % at 18.7 µM | S. cerevisiae UUG-firefly luciferase reporter, luminescence/redox ratio | AID 602363;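 active means replicate mean at a twofold rise or more, about +100% in these data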;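 further: firefly luciferase made from a UUG start codon reports start codon fidelity; reporter light over untreated wells divided by growth signal over untreated wells; some hits fall short of that in this replicate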
eIF4H FP inh – inhibitors of RNA binding by human eIF4H | Q15056 | eIF4H fluorescence polarization binding assay | inhibition, % at 35 µM | 290,000 tested, 0.94% active | AID 2012;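 active means 50% or more with normal probe brightness, or confirmed in later tests; about a fifth of its hits are not listed in these tables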;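 further: calls also rest on retests at 20 µM and on dose response follow-up; 0% = protein and probe with vehicle and 100% = probe without protein; strong numbers were not always called active; many hits fall short of the cut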
PABP polyA inh – blocks human PABP binding to poly(A) RNA | AID 2014 | 290,000 tested, 1% active | fluorescence polarization | inhibition, % at 35 µM | P11940;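 active means 50% or more with normal probe brightness, or confirmed in later tests; about a fifth of its hits are not listed in these tables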;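 further: calls also rest on retests at 20 µM and on dose response follow-up; controls were probe without protein and protein plus probe with vehicle; some compounds called inactive have numbers as strong as hits; many hits fall short of the cut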
Target sequence (P11940 whole entry, looked up): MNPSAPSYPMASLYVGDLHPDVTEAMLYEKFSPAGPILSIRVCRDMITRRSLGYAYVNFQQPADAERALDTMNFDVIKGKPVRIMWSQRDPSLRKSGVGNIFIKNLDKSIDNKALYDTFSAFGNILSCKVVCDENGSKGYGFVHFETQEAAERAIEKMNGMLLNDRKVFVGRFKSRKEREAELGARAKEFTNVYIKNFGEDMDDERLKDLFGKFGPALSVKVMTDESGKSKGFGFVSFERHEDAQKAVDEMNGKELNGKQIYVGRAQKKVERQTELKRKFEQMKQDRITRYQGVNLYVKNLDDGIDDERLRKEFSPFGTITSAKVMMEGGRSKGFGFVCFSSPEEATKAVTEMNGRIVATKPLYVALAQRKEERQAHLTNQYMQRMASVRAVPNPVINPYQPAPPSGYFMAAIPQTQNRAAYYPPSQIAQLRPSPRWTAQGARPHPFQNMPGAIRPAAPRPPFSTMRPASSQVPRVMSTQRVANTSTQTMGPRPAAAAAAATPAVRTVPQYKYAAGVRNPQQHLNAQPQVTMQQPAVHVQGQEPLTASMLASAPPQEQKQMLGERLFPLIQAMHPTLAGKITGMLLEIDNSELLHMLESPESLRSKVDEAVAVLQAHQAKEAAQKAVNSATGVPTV
Env fusion inh – inhibitors of HIV Env-mediated cell fusion; HeLa-JRFL Env/CEM21 cell fusion, luciferase; inhibition, % at 12.3 µM; 360,000 tested, 1.1% active; AID 651610;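 active means mean replicate inhibition score of at least 50 and every replicate individually at or above 50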;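 further: 0% = plate neutral controls and 100% = maraviroc near 300 nM; one replicate is shown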
Rce1 inhib – inhibitors of yeast Ras-converting enzyme. yeast membranes, quenched prenylated peptide cleavage fluorescence. calls only. 290,000 tested, 0.27% active. AID 2563;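 active means fall in fluorescence gain of 50% or more versus controls, with final raw signal at or below 3038400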;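 further: plate controls were neutral control wells for no effect and wells lacking membranes for full effect; tested at 10 µM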
CSC inhib – blocks cancer stem cells; 300,000 tested, 1.1% active; cancer stem cell-like cells viability, luminescence; inhibition, % at 7.5 µM;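 active means mean at 75% or more and at least half the replicates too; tested in HMLE shEcad cells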;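 further: 0% = median of negative and 100% = median of positive control wells; the first replicate is given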
MT1-MMP act inh – inhibitors of human MT1-MMP activation. P50281. HT1080 RFP-PRO-GFP cells, GFP/RFP ratio fluorescence, overnight; percent of plate control window, DMSO zero. GFP/RFP ratio change, % at 20 µM. 360,000 tested, 0.061% active. AID 651647;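 active means GFP/RFP ratio change of at least 30% with cell ATP level not reduced by more than half and red fluorescence within 50% of control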; further: strong numbers were not always called active
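Assay system – RFP-PRO-GFP reporter HT1080 cells · Compound dosing – single dose of 20 µM compound, 1% DMSO final · Incubation – overnight compound exposure at 37 °C · Measure – GFP/RFP fluorescence ratio · Benchmarks – DMSO wells and RFP-L50D-GFP cells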
MT1-MMP act inh RFP – second read-out of MT1-MMP act inh, no call of its own (marks repeat the call); RFP signal change, %; measured here: RFP expression control read;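 0 = vehicle wells; hits needed this value within 50% of zero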
Active calls of the source: *; i = inactive; / = no result given. Not all compounds are listed; the hit share may differ from the screen's.

The opening two entries, ahead of the listing:
SMILES	Yeast UUG start	eIF4H FP inh	PABP polyA inh	Env fusion inh	Rce1 inhib	CSC inhib	MT1-MMP act inh	MT1-MMP act inh RFP
COc1ccc(S(=O)(=O)Nc2ccccc2C(=O)N2CCOCC2)cc1Cl	-20.9	-3.4	0.5	4.2	i	/	-1.5	2.6
O=C1COc2ccc(C(=O)c3ccccc3C(=O)NCc3ccco3)cc2N1	5.4	-3.1	-1.5	/	i	/	1.1	2.3

Main list (from the top)
SMILES	Yeast UUG start	eIF4H FP inh	PABP polyA inh	Env fusion inh	Rce1 inhib	CSC inhib	MT1-MMP act inh	MT1-MMP act inh RFP
COc1ccc(S(=O)(=O)Nc2ccccc2C(=O)N2CCOCC2)cc1Cl	-20.9	-3.4	0.5	4.2	i	/	-1.5	2.6
O=C1COc2ccc(C(=O)c3ccccc3C(=O)NCc3ccco3)cc2N1	5.4	-3.1	-1.5	/	i	/	1.1	2.3
Cc1nnc(NC(=O)c2ccc(S(=O)(=O)C(F)F)cc2)s1	-21.4	-10.1	7.7	-24.4	/	-1.2	-0.2	1.9
O=S(=O)(c1cc(O)ccc1O)c1cccc2c(S(=O)(=O)c3cc(O)ccc3O)cccc12	-11.0	/	/	-13.1	i	-3.3	3.0	5.3
Cc1ccc(S(=O)(=O)CCC(=O)N(CCN2CCOCC2)c2nc3ccccc3s2)cc1	-6.8	/	/	-23.6	i	-5.0	-2.2	-1.1
Cc1cc(C(=O)N2CCN(S(=O)(=O)c3ccccc3)CC2)c(C)o1	-9.4	14.1	11.6	13.5	i	9.2	-4.4	3.8
COc1cccc(/C=C/C(=O)OCC(=O)Nc2ccc3[nH]c(=O)[nH]c3c2)c1OC	-7.3	/	/	/	i	-10.8	-1.2	-0.4
Cc1ccc(Cn2nnc3c(=O)n(Cc4cc(C)ccc4C)cnc32)cc1	-9.0	-6.0	-5.4	/	i	25.1	-1.5	-5.0
CCOC(=O)c1cc(-c2ccccc2)n(CC(=O)Nc2ccc(OCC)cc2)c1C	-10.2	3.8	-9.3	8.6	i	-4.3	-1.7	1.6
Cc1cccc(C(=O)Nc2cccc(Br)c2)c1[N+](=O)[O-]	/	-4.7	0.1	11.0	i	2.0	-1.1	-4.0
CC(CCCN1CCCC1)Nc1ccnc2cc(Cl)ccc12 (stereo not given)	7.8	/	/	12.2	/	/	4.3	3.2
Cc1ccc(Cl)cc1N(Cc1ccc(C(=O)NCc2cccnc2)cc1)S(=O)(=O)c1ccccc1	-5.9	-3.1	6.7	-36.0	i	5.2	4.2	-0.6
CCOC(=O)C1(C)CCCCCN1C(=O)c1ccc(N(C)C)cc1 (stereo not given)	6.6	/	/	-9.8	/	/	-1.8	0.8
COc1ccc(Cn2c(=O)[nH]c3cc(C(=O)N4CCN(c5ccccc5OC)CC4)ccc3c2=O)cc1	-7.3	-8.6	2.5	/	i	-10.5	-1.4	-17.3
COc1cccc2cc(C(=O)N(Cc3cccs3)CC3CCCO3)c(=O)oc12 (stereo not given)	/	0.4	12.2	-15.0	i	-0.6	0.4	-4.5
CC(=NNS(=O)(=O)c1cccc([N+](=O)[O-])c1)c1ccc(-n2ccnc2)cc1	-18.3	/	/	/	/	-4.7	3.6	-2.7
CCc1cccc(NC(=O)C2CCN(S(=O)(=O)c3c(C)noc3C)CC2)c1	/	-8.7	15.8	13.3	i	-7.4	2.1	3.0
COc1ccc(OC)c(NC(=O)CCS(=O)(=O)c2cc3c(cc2C)NC(=O)CO3)c1	-10.9	-19.7	11.2	7.0	i	-7.0	-1.2	-2.5
O=C(O)CSCC(=O)N1CCN(S(=O)(=O)c2cc(Cl)cc(Cl)c2)CC1	/	0.9	14.8	-26.4	i	-20.4	-0.1	-0.3
CCOC(=O)Cn1nnc(-c2ccc([N+](=O)[O-])cc2)n1	/	0.7	-13.9	-4.1	i	8.3	0.0	2.5
Cc1cc(Cl)c2oc(C(=O)N(CCO)Cc3ccccc3)c(C)c2c1	-6.8	-10.4	-9.6	2.4	i	7.2	0.5	-3.2
O=C(NCCN1CCNC1=O)C1CCC(=O)N(Cc2cccc(C(F)(F)F)c2)C1 (stereo not given)	-3.1	-17.6	17.2	-7.6	i	-6.9	-0.5	1.5
N#Cc1c(-c2ccc(F)cc2)cc(-c2ccccc2)nc1SCC(=O)NCC(=O)O	/	0.1	22.1	-4.5	i	2.9	3.1	1.7
CN(C)CCNC(=O)C(c1ccccc1)c1ccccc1	-12.4	-5.7	6.8	11.9	i	-10.8	-2.0	-0.1
CC1CCN(C(=O)CSc2nnc(Cc3ccccc3)o2)CC1	2.7	4.1	-19.3	12.0	i	1.6	6.0	2.3
SMILES	Yeast UUG start	eIF4H FP inh	PABP polyA inh	Env fusion inh	Rce1 inhib	CSC inhib	MT1-MMP act inh	MT1-MMP act inh RFP
CC1(c2ccccc2)NC(=O)N(CC(=O)Nc2ccc(S(=O)(=O)Nc3ncccn3)cc2)C1=O (stereo not given)	-11.7	/	/	/	i	-1.6	-0.6	1.6
O=C(O)CCc1nc2cccnc2n1Cc1ccccc1	-1.5	-13.2	-4.0	-8.9	i	-7.8	0.9	2.5
Cc1ccnc(Nc2ccc(CCO)cc2)n1	-27.8	/	/	5.2	/	/	4.5	4.3
O=C(CN1C(=O)NC2(CCCC2)C1=O)Nc1ccccc1N1CCCC1	-1.4	-6.7	-0.1	17.0	i	-3.0	-6.3	0.8
CCCNC(=O)CSC1=N/C(=C/c2ccc(F)cc2)C(=O)N1CC	-11.4	4.1	8.4	15.1	i	-2.1	-1.3	1.9
CC(C)CN1C(=O)c2ccc(C(=O)NCc3ccc4c(c3)OCO4)cc2C1=O	/	-1.6	-9.3	-12.1	i	-12.0	4.8	-0.7
Cc1ccc(OCCOC(=O)c2nc3nccc(C)n3n2)cc1	/	-1.3	4.0	27.4	i	15.6	-1.4	-3.0
COc1cccc(CNC(=O)Nc2cccs2)c1	/	-1.8	0.8	/	i	-2.7	1.5	-0.2
CN(Cc1nccs1)C(=O)C1CCC(=O)N(CCCc2ccccc2)C1 (stereo not given)	-15.1	-3.2	-4.0	-7.1	i	/	1.3	3.9
N#Cc1cnn(-c2ccccc2)c1NC(=O)CN1CCOCC1	-15.9	-4.1	-4.1	-15.5	i	-5.5	2.1	4.3
CC1Cc2ccccc2N1CC(=O)N(C)c1c(N)n(Cc2ccccc2)c(=O)[nH]c1=O (stereo not given)	-10.6	/	/	/	/	-18.8	-7.0	13.7
COc1ccccc1NC(=O)CSc1nnc(C)n1CC1CCCO1 (stereo not given)	-1.4	-1.3	9.2	/	i	-4.2	-0.1	-4.4
O=C1OC(c2ccc(Cl)cc2)=N/C1=C\c1cccnc1	-18.2	3.4	-5.2	/	i	/	-1.0	0.4
c1cc2cc(CNc3nc(NCC4CC4)nc4ccsc34)ccc2o1	-8.3	/	/	80.3*	/	/	2.8	-22.2
CCOc1cc(NC(=S)NCCCN2CCOCC2)c(OCC)cc1NC(=O)c1ccc(C)cc1	/	3.0	4.2	-28.4	i	-7.2	2.3	0.5
CC(Oc1ccccc1)C(=O)N=C1SC2CS(=O)(=O)CC2N1c1ccc(F)cc1 (stereo not given)	-24.3	2.8	3.6	13.2	i	-13.0	-2.0	-2.2
CC(C)Oc1ccc(C2CC(=O)N(c3cccc(/C=C/C(=O)O)c3)C2=O)cc1 (stereo not given)	8.5	-9.0	-3.5	2.6	i	0.2	0.1	3.3
CCCCC1CCC(C(=O)NCc2ccc3c(c2)OCO3)CC1 (stereo not given)	-13.2	-6.2	-1.5	-10.0	i	-9.1	2.2	0.7
Cc1ccc(F)c(S(=O)(=O)NC(=O)C2(C)CCN2C(=O)c2ccc(C(F)(F)F)nc2C)c1 (stereo not given)	3.6	/	/	6.0	/	/	2.4	4.6
Cc1c(/C=N/NC(=O)C(NC(=O)c2ccc3c(c2)OCO3)C(C)C)c2ccccc2n1C (stereo not given)	/	-9.4	3.3	-23.7	i	/	-2.5	-9.6
CC(C)(SC(=S)N1CCCCCC1)C(=O)O	/	2.1	11.4	-2.5	i	5.2	-3.1	2.1
O=C(Oc1ccccc1)n1c(=S)oc2ccccc21	/	0.1	-1.7	10.0	i	-2.9	2.5	4.7
COc1ccc(NS(=O)(=O)c2cccc(C(=O)OCC(=O)NC3CC3)c2)cc1	-7.1	-9.7	31.5	11.7	i	/	-0.8	-1.6
Cc1c(CCC(=O)NCCCn2ccnc2)c(=O)oc2c(C)c3oc4c(c3cc12)CCCC4	-4.9	7.0	4.9	/	i	5.7	4.3	-2.8
CC(=O)OC[C@@H]1CN(Cc2ccccc2)C[C@H](n2cnc3c(NCC(C)C)ncnc32)O1	-5.5	/	/	5.9	/	/	2.8	2.9

Some values from the entries so far.
`COc1ccccc1NC(=O)CSc1nnc(C)n1CC1CCCO1` (stereo not given) @ MT1-MMP act inh: -0.1
`O=C(CN1C(=O)NC2(CCCC2)C1=O)Nc1ccccc1N1CCCC1` @ Env fusion inh: 17.0
`CC(=NNS(=O)(=O)c1cccc([N+](=O)[O-])c1)c1ccc(-n2ccnc2)cc1` @ MT1-MMP act inh RFP: -2.7
`CC1Cc2ccccc2N1CC(=O)N(C)c1c(N)n(Cc2ccccc2)c(=O)[nH]c1=O` (stereo not given) @ MT1-MMP act inh: -7.0
`CC1(c2ccccc2)NC(=O)N(CC(=O)Nc2ccc(S(=O)(=O)Nc3ncccn3)cc2)C1=O` (stereo not given) @ Yeast UUG start: -11.7

Back to the main list; the 2 compounds before the break are reprinted first.
SMILES	Yeast UUG start	eIF4H FP inh	PABP polyA inh	Env fusion inh	Rce1 inhib	CSC inhib	MT1-MMP act inh	MT1-MMP act inh RFP
Cc1c(CCC(=O)NCCCn2ccnc2)c(=O)oc2c(C)c3oc4c(c3cc12)CCCC4	-4.9	7.0	4.9	/	i	5.7	4.3	-2.8
CC(=O)OC[C@@H]1CN(Cc2ccccc2)C[C@H](n2cnc3c(NCC(C)C)ncnc32)O1	-5.5	/	/	5.9	/	/	2.8	2.9
O=C(CSc1nc2ccccc2o1)NCc1ccco1	-7.9	-8.9	-5.7	/	i	-4.0	1.3	3.3
CNC(=O)C1CCN(S(=O)(=O)c2c(C)noc2/C=C/N(C)C)CC1	-9.0	-2.8	5.8	-3.4	i	6.2	1.6	6.5
Cc1ccccc1N1CCN(C2CCCN(C(=O)c3csc(C(C)C)n3)C2)CC1 (stereo not given)	-6.6	9.3	1.0	/	i	1.7	-1.0	-7.7
COC(C(=O)Nc1c(F)cccc1F)c1ccccc1 (stereo not given)	8.5	-8.8	-4.7	1.5	i	-10.0	2.6	2.3
Cc1cccc(C(=O)NCCN2CCN(c3ccccc3)CC2)c1	-17.6	-2.7	4.7	/	i	13.7	3.3	4.8
O=c1c2cc(F)ccc2sn1-c1ccccc1	-33.2	/	/	-41.7	/	31.6	3.2	-13.5
COC(=O)CCSCc1cn2cc(Cl)ccc2n1	-11.0	-0.1	1.0	/	i	-8.2	1.9	4.8
CN(CC(=O)Nc1cccc(F)c1)C(=O)c1cc(-c2ccco2)nc2ccccc12	/	/	/	10.6	i	/	-7.8	0.3
Clc1cccc(/C=N\Nc2nccs2)c1	-16.2	-7.5	9.0	-136.9	i	19.1	3.0	-0.9
COc1ccc(C(=O)Nc2cccc(-c3nc4ncccc4o3)c2C)cc1OC	-13.5	2.6	5.4	/	i	2.7	4.7	5.4
O=C(C1COc2ccccc2O1)N1CCN(c2ccccc2)CC1 (stereo not given)	-22.5	-1.1	4.7	/	i	-8.6	0.8	-3.0
Cc1noc(C)c1COc1ncnc2ccccc12	/	-7.2	-9.8	8.1	i	-8.1	-4.7	0.1
COC(=O)CNC(=O)c1c(-c2c(Cl)cccc2Cl)noc1C	-0.9	2.0	2.0	/	i	4.7	1.7	0.6
COc1oc(-c2ccccc2C)nc1C(F)(F)F	-20.3	-12.5	-9.3	-14.9	/	-1.3	7.1	-2.5
